MITF inh = blocks MITF activity; TRPM1 promoter luciferase, luminescence, 24 h; inhibition, % (concentration not given with the values); 37,000 compounds, 0.28% hits;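 active means most replicates at 85% or more, or half of them and the mean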;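 further: human melanocyte line stably carrying TRPM1 promoter luciferase reporter; 0% = vehicle wells and 100% = a positive control; the first replicate is given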
Hedgehog inh = Sonic Hedgehog pathway inhibition. Shh-LIGHT2 Gli-luciferase reporter, 30 h. 22,000 compounds, 2.1% hits. inhibition, % (concentration not given with the values);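 active means replicate mean of 65% or more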;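 further: pathway switched on by Shh-conditioned medium diluted 1 in 25 in low serum; 100 nL library stock added to about 40 µL; 0% = median of neutral wells and 100% = positive control level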
PD-1 reversal = activators reversing PD-1 mediated T-cell inhibition | primary human CD4 T cells, PD-L1 beads, CellTiter-Glo 96 h | activation, % (test concentration not listed) | 29,000 tested, under 10 active | AID 2316;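 active means replicate mean of 50% or more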;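 further: 0% = median vehicle wells and 100% = positive control; 100 nL library stock added to about 50 µL; numbers are from one replicate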
YB-1 expression = YB-1 expression inhibition; 30,000 compounds, 0.37% hits; delta delta Cp (YB-1 minus CDIP) (test concentration not listed); U2OS, qRT-PCR YB-1 vs CDIP delta delta Cp, 16 h; active compounds read high; zero = DMSO, each unit about twofold;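 active means delta delta Cp rounded down to an integer at or above 3, about 3 SD of DMSO wells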;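 further: higher means less YB-1 transcript or more CDIP transcript relative to DMSO; stock transfer was 100 nL into about 100 µL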
* = called active by the depositor; / = no result given. Not all compounds are listed, so the mix of outcomes need not match the whole.

| structure | MITF inh | Hedgehog inh | PD-1 reversal | YB-1 expression |
| --- | --- | --- | --- | --- |
| COc1ccc(NC(=O)N(C)C[C@H]2Oc3ccc(NC(=O)Cn4cnnn4)cc3C(=O)N([C@H](C)CO)C[C@@H]2C)cc1 | -4 | -8 | 0.9 | -0.2 |
| C[C@@H]1CN([C@@H](C)CO)C(=O)c2cccc(NC(=O)c3ccncc3)c2O[C@@H]1CN(C)C(=O)Nc1ccc2c(c1)OCO2 | -27 | -6 | 0.1 | 1.7 |
| Cc1noc(C)c1NC(=O)N(C)C[C@H]1OCCCC[C@@H](C)Oc2ccc(NC(=O)C3CCCCC3)cc2C(=O)N([C@H](C)CO)C[C@@H]1C | -10 | 31 | -3.0 | 0.57 |
| C[C@H](CO)N1C[C@H](C)[C@H](CN(C)Cc2ccc3c(c2)OCO3)Oc2c(NS(=O)(=O)c3cn(C)cn3)cccc2C1=O | 2 | -15 | -1.2 | 1.6 |
| COC(=O)c1ccc2c(=O)n(CCCN3CCOCC3)c(=S)[nH]c2c1 | 24 | / | 0.0 | / |
| C[C@H]1CN([C@@H](C)CO)C(=O)c2cccc(NC(=O)CCCCCC(=O)Nc3ccccc3N)c2O[C@H]1CN(C)C | -2 | / | 1.7 | -0.52 |
| Cc1cc(C)nc(SCC(=O)NN)n1 | -3 | -27 | 0.1 | 0.39 |
| C[C@H](CO)N1C[C@H](C)[C@H](CN(C)C(=O)Nc2ccc(C(F)(F)F)cc2)Oc2c(NS(=O)(=O)c3cccs3)cccc2C1=O | 7 | -64 | -2.0 | -0.034 |
| C[C@@H]1CN([C@H](C)CO)C(=O)c2cccc(NC(=O)Nc3ccccc3)c2O[C@@H]1CN(C)C(=O)Nc1ccccc1 | -4 | -10 | -1.2 | 0.0056 |
| COc1ccc(S(=O)(=O)Nc2cccc3c2O[C@H](CN(C)CC2CCCCC2)[C@@H](C)CN([C@H](C)CO)C3=O)cc1 | -4 | -24 | -1.3 | -0.86 |
| CC(C)NC(=O)N(C)C[C@@H]1Oc2ccc(NC(=O)Nc3ccc(F)cc3)cc2C(=O)N([C@@H](C)CO)C[C@H]1C | -7 | -43 | 1.1 | -0.33 |
| COc1cc(C)c2c(=O)cc(-c3ccccc3)oc2c1 | -12 | -27 | / | -0.34 |
| C[C@@H]1CN([C@H](C)CO)C(=O)Cc2cc(NS(=O)(=O)c3cccs3)ccc2O[C@H]1CN(C)Cc1ccc(-c2ccccc2)cc1 | 11 | -5 | 0.6 | -0.3 |
| COc1ccc(S(=O)(=O)Nc2ccc3c(c2)C(=O)N([C@H](C)CO)C[C@@H](C)[C@H](CN(C)Cc2ccc(Oc4ccccc4)cc2)O3)cc1 | 37 | 0 | -0.9 | 0.16 |
| C[C@@H]1CCCCO[C@@H](CN(C)Cc2ccc3c(c2)OCO3)[C@@H](C)CN([C@H](C)CO)C(=O)c2cc(NC(=O)Cc3ccccc3)ccc2O1 | -11 | -16 | / | -0.29 |
| C[C@H]1CN([C@@H](C)CO)C(=O)c2cc(NC(=O)C3CC3)ccc2O[C@H]1CN(C)C(=O)Nc1ccccc1 | -8 | -6 | -0.1 | 0.0073 |
| C[C@H](CO)N1C[C@H](C)[C@@H](CN(C)C(=O)Nc2ccccc2)Oc2ccc(NS(=O)(=O)c3ccc(F)cc3)cc2C1=O | -1 | -24 | -0.3 | -0.71 |
| CN(C)CCNC(=O)c1cc2ccccc2oc1=O | 5 | -16 | 1.8 | 0.13 |
| Fc1ccc([C@@H]2CCNC[C@H]2COc2ccc3c(c2)OCO3)cc1 | -7 | -32 | -0.4 | -0.29 |
| COc1ccc(NC(=O)N(C)C[C@H]2Oc3c(NC(=O)C4CCOCC4)cccc3C(=O)N([C@H](C)CO)C[C@@H]2C)cc1 | -15 | -43 | 1.7 | 0.13 |
| COc1ccc(OC)c(Nc2ncnc3c2cnn3-c2ccccc2)c1 | -105 | / | 2.4 | / |
| Cc1nn(CCCNC(=O)C2CCCO2)cc1Br (centres undefined) | 2 | / | -0.5 | / |
| Cc1noc(C)c1NC(=O)Nc1ccc2c(c1)C(=O)N([C@H](C)CO)C[C@H](C)[C@H](CN(C)S(=O)(=O)c1ccc(F)cc1)O2 | -5 | / | 0.7 | 1.3 |
| CCCCC[C@H](O)CC(=O)CCc1ccc(O)c(OC)c1 | -12 | -19 | / | -0.18 |
| COc1ccc(C(=O)CSc2nc3ccc(OC)cc3[nH]2)cc1 | -20 | -70 | 0.4 | -0.44 |
| C[C@H](CO)N1C[C@H](C)[C@@H](CN(C)Cc2ccc(C(=O)Nc3ccccc3N)cc2)Oc2c(NS(C)(=O)=O)cccc2C1=O | -20 | / | -0.6 | -0.4 |
| CSc1sc(C(=O)NN)cc1S(=O)(=O)C(C)C | 4 | -30 | -0.3 | -0.33 |
| CC(C)NC(=O)N(C)C[C@H]1Oc2c(NC(=O)C3CCOCC3)cccc2C(=O)N([C@@H](C)CO)C[C@H]1C | -15 | -20 | 3.7 | 0.21 |
| Cc1noc(C)c1NC(=O)Nc1cccc2c1O[C@H](CN(C)Cc1ccc(-c3ccccc3)cc1)[C@H](C)CN([C@H](C)CO)C2=O | -14 | -48 | -0.2 | 0.17 |
| C[C@H]1CN([C@@H](C)CO)C(=O)Cc2cc(NC(=O)Nc3cccc4ccccc34)ccc2O[C@@H]1CN(C)S(=O)(=O)c1cn(C)cn1 | -1 | 30 | -0.3 | 0.54 |
| C[C@@H]1CN([C@H](C)CO)C(=O)c2cc(NC(=O)CCCCCC(=O)Nc3ccccc3N)ccc2O[C@H]1CN(C)C(=O)Nc1ccccc1 | -2 | / | 0.7 | -0.25 |
| Cc1ccc(S(=O)(=O)N(C)C[C@@H]2Oc3ccc(NC(=O)NC(C)C)cc3C(=O)N([C@H](C)CO)C[C@@H]2C)cc1 | 9 | / | 1.9 | -0.62 |
| C[C@@H]1CN([C@H](C)CO)C(=O)c2cccc(NC(=O)CCCCCC(=O)Nc3ccccc3N)c2O[C@@H]1CN(C)Cc1ccncc1 | -21 | / | 2.8 | -0.28 |
| COc1ccc(CN(C)C[C@@H]2Oc3ccc(NC(=O)C4CCCCC4)cc3C(=O)N([C@H](C)CO)C[C@@H]2C)cc1 | 8 | -23 | -0.7 | -0.032 |
| C[C@H](CO)N1C[C@H](C)[C@H](CN(C)S(=O)(=O)c2cccs2)Oc2ccc(NC(=O)Nc3ccc(C(F)(F)F)cc3)cc2C1=O | 45 | -1 | 1.6 | 0.11 |
| CC(C)NC(=O)N(C)C[C@@H]1Oc2c(NC(=O)Nc3ccc(F)cc3)cccc2C(=O)N([C@H](C)CO)C[C@H]1C | -2 | -22 | -0.4 | 0.00026 |
| Cc1noc(C)c1NC(=O)Nc1ccc2c(c1)C(=O)N([C@@H](C)CO)C[C@@H](C)[C@H](CN(C)Cc1ccc(C(F)(F)F)cc1)O2 | 0 | / | 0.7 | -0.098 |
| COc1ccc(NC(=O)Nc2ccc3c(c2)C(=O)N([C@H](C)CO)C[C@@H](C)[C@H](CN(C)C(=O)Nc2c(C)noc2C)O3)cc1 | 1 | -2 | 0.6 | 0.3 |
| COC(=O)c1ccccc1NC(=O)COc1ccc(C)cc1C | 25 | / | -1.3 | / |
| C[C@@H]1CN([C@@H](C)CO)C(=O)c2cc(NC(=O)Cc3cn(C)c4ccccc34)ccc2O[C@H]1CN(C)Cc1ccc2c(c1)OCO2 | 27 | / | -1.7 | 0.31 |
| C[C@H]1CN([C@@H](C)CO)C(=O)Cc2cc(NS(=O)(=O)c3cn(C)cn3)ccc2O[C@H]1CN(C)Cc1ccc(C(=O)O)cc1 | -11 | -36 | 0.8 | 0.21 |
| C[C@H]1CN([C@@H](C)CO)C(=O)c2cccc(NC(=O)Nc3ccc(C(F)(F)F)cc3)c2O[C@H]1CN(C)S(=O)(=O)c1ccc(Cl)cc1 | -3 | 105* | / | 0.036 |
| Cc1noc(C)c1NC(=O)Nc1cccc2c1O[C@@H](CN(C)Cc1ccncc1)[C@H](C)CN([C@H](C)CO)C2=O | -8 | -25 | / | 0.14 |
| C[C@H](CO)N1C[C@H](C)[C@H](CN(C)C(=O)Nc2ccc(C(F)(F)F)cc2)Oc2ccc(NS(=O)(=O)c3ccc(F)cc3)cc2C1=O | 17 | 4 | -0.3 | -0.17 |
| C[C@H]1CN([C@@H](C)CO)C(=O)Cc2cc(NC(=O)CCN3CCOCC3)ccc2O[C@H]1CN(C)S(=O)(=O)c1cn(C)cn1 | -3 | -19 | 0.4 | 0.15 |
| C[C@H](CO)N1C[C@H](C)[C@H](CN(C)Cc2ccc(C(F)(F)F)cc2)Oc2ccc(NC(=O)C3CC3)cc2C1=O | 24 | 20 | 1.3 | -0.34 |
| Cc1cc(C(=O)Nc2cccc3c2O[C@@H](CN(C)CC2CC2)[C@@H](C)CN([C@H](C)CO)C3=O)n(C)n1 | -2 | -33 | 2.6 | -0.077 |
| C[C@H]1CN([C@@H](C)CO)C(=O)c2cc(NC(=O)Cc3ccccc3)ccc2O[C@H]1CN(C)C(=O)Nc1ccc(C(F)(F)F)cc1 | -3 | 5 | 0.1 | -0.019 |
| COc1ccc(NC(=O)N(C)C[C@H]2Oc3c(NC(=O)c4ccncc4)cccc3C(=O)N([C@@H](C)CO)C[C@H]2C)cc1 | -4 | 3 | 0.2 | -0.28 |
| C[C@@H]1CN([C@@H](C)CO)C(=O)c2cccc(NC(=O)NC3CCCCC3)c2O[C@H]1CN(C)Cc1ccc2c(c1)OCO2 | 21 | 5 | / | -0.12 |
| COc1ccc(N(CC(=O)Nc2ccccc2Br)S(C)(=O)=O)cc1OC | -10 | / | 0.8 | / |
| C[C@H]1CN([C@@H](C)CO)C(=O)c2cccc(NC(=O)CCCCCC(=O)Nc3ccccc3N)c2O[C@H]1CN(C)S(C)(=O)=O | -29 | / | 1.9 | -0.32 |
| C[C@H]1CN([C@@H](C)CO)C(=O)Cc2cc(NC(=O)CCN3CCOCC3)ccc2O[C@H]1CN(C)Cc1ccc(Cl)c(Cl)c1 | 5 | -3 | 0.6 | 0.23 |
| C[C@H]1CN([C@@H](C)CO)C(=O)Cc2cc(N(C)C)ccc2O[C@H]1CN(C)C(=O)Nc1ccc(C(F)(F)F)cc1 | -6 | -26 | / | 0.016 |
| COc1ccc(NC(=O)N(C)C[C@@H]2Oc3ccc(NS(=O)(=O)c4ccccc4)cc3CC(=O)N([C@@H](C)CO)C[C@@H]2C)cc1 | -9 | 4 | 1.7 | 0.32 |
| CC(=O)c1cccc(NC(=O)C2CCCN(S(=O)(=O)c3ccc(F)cc3)C2)c1 (centres undefined) | -10 | / | 1.8 | / |
| CCOC(=O)CSc1cc(C)nc(N)n1 | -11 | / | 0.2 | / |
| COc1ccc(C(C)C)cc1S(=O)(=O)Nc1cccnc1 | -23 | / | -0.6 | / |
| C=C(C)C1=C[C@@]2(C)C(=CC1=O)CC[C@@H](O)[C@@H]2C | 11 | -16 | 2.4 | -0.43 |
| C/C=C(\C)C(=O)O[C@@H]1c2c(ccc3ccc(=O)oc23)OC(C)(C)[C@@H]1OC(C)=O | 7 | 16 | / | 0.059 |

Next section:
| structure | MITF inh | Hedgehog inh | PD-1 reversal | YB-1 expression |
| --- | --- | --- | --- | --- |
| Cc1cccc(NC(=O)c2ccccc2NC(=O)COc2ccccc2Cl)c1C | -13 | / | -1.2 | / |
| C[C@H]1CN([C@@H](C)CO)C(=O)c2cc(NC(=O)Nc3ccc(C(F)(F)F)cc3)ccc2O[C@@H]1CN(C)C(=O)Nc1ccc(F)cc1 | 8 | -9 | -3.4 | 0.073 |
| COc1cc(O)c(C(C)=O)c(OC)c1 | -25 | -53 | / | -0.059 |
| C[C@@H]1CN([C@H](C)CO)C(=O)c2cc(NS(=O)(=O)c3ccc(Cl)cc3)ccc2O[C@H]1CN(C)S(=O)(=O)c1cccs1 | 20 | / | / | -0.15 |
| COc1ccc2c(c1)c(C(=O)O)c(C)n2CCc1ccc(OC)c(OC)c1 | -10 | -20 | -0.4 | -0.32 |
| COc1ccc(NC(=O)CCc2nc(-c3ccccc3)no2)cc1 | -21 | / | 1.0 | / |
| COc1ccc(NC(=O)CSC2CC(=O)N(c3ccccc3)C2=O)cc1Cl (centres undefined) | -17 | / | 0.9 | / |
| CC(C)NC(=O)N(C)C[C@H]1Oc2c(NC(=O)CCCCCC(=O)Nc3ccccc3N)cccc2C(=O)N([C@H](C)CO)C[C@@H]1C | -23 | / | 0.3 | -0.12 |
| Cc1nnc(SCC(=O)NCC2CCCO2)s1 (centres undefined) | 1 | / | 1.7 | / |
| C[C@@H]1CN([C@H](C)CO)C(=O)Cc2cc(NC(=O)c3ccncc3)ccc2O[C@H]1CN(C)S(=O)(=O)c1ccc(Cl)cc1 | -5 | -21 | 2.0 | 0.26 |
| C=C(C)Cn1c(SCc2nc3ccccc3[nH]2)nc2sc3c(c2c1=O)CCCC3 | 31 | / | -2.5 | / |
| CCOC(=O)c1sc(NC(=O)c2cnccn2)c(C(=O)OC)c1C | -1 | / | 1.1 | / |
| OC[C@H]1O[C@@H](OCCc2ccccc2)[C@H](O)[C@@H](O)[C@@H]1O | -5 | -2 | 0.8 | -0.2 |
| O=S(=O)(c1ccc(Cl)cc1)c1nc(-c2ccccc2F)oc1NCCN1CCOCC1 | -8 | / | -0.7 | / |
